# 2A firefly: FMDV 2A StopGo reporter, firefly signal; HEK cells with a luciferase reporter of 2A StopGo recoding; Potency, µM (highest dose often 57.5 µM), for the others: top-dose signal change, negative = less light; 120,000 compounds, 0.23% hits; AID 1745856; active = well fitted falling curve with a large enough effect; inconclusive = small, poorly fitted or top-dose-only effect; inactive = no such curve, though single readings can be large or run the other way; note: nearly all actives have a fitted effect of over 60% in size; overnight with compound
# StopGo RLuc: FMDV 2A StopGo reporter, Renilla signal; HEK cells with a luciferase reporter of 2A StopGo recoding; 120,000 compounds, 0.32% hits; Potency, µM (titrated, usually from 57.5 µM), inactives show at the top dose signal change, negative = less light; active means well fitted falling curve with a large enough effect; inconclusive means small, poorly fitted or top-dose-only effect; inactive means no such curve, though single readings can be large or run the other way; note: nearly all actives have a fitted effect of over 55% in size; overnight with compound
# The depositor's hits bear a star; ? = inconclusive; [ ] = another dose, or the depositor's remark. % is set by controls: 0 for no effect and ±100 for the full control effect; potency is the fitted concentration of half-maximal effect. This is a subset; the hit share may differ from the screen's.
SMILES,2A firefly,StopGo RLuc
Cc1ccc(-c2nnn(Cc3csc(-c4ccc(C)cc4)n3)n2)cc1,9%,-4%
COc1cccc(NCc2cc(=O)oc3cc(OC)ccc23)c1,67%[activator],6%
COc1ccc(-c2ccc(=O)n(CC(=O)N3CCC(Cc4ccccc4)CC3)n2)c(F)c1,?,?
CCc1ccc(-c2nn(C)c(=O)c3c2CCCC3)cc1S(=O)(=O)Nc1cccc(F)c1,13%,284%[activator]
CCOc1ccc(N(CC)C(=O)c2cc3c(s2)-c2ccc(Cl)cc2SC3)cc1,10%,-5%
COc1ccc(Nc2c(-c3cc(Br)ccc3O)nc3ncccn23)cc1OC,2%,3%
Cc1ccc(OCC(=O)Nc2cccc(OCc3cc(=O)n4cccc(C)c4n3)c2)cc1C,-23%,-5%
CCNC(=O)NC(=O)C(C)Sc1nnc(-c2cccc(C)c2)n1CCOC (stereo not given),-6%,3%
Cc1ccccc1CN1CCC(CNc2ncnc3onc(-c4ccc(F)cc4)c23)CC1,2%,-10%
Cc1ccc(NC(=O)C(C)n2nc(C(=O)O)c3ccccc3c2=O)cc1 (stereo not given),26%,7%
CN(C)CCCN(C(=O)c1cccc(Br)c1)c1nc2c(F)cc(F)cc2s1,-12%,-17%
CC(C)c1ccc(CNc2n[nH]c(-c3ccco3)n2)cc1,118%[activator],-9%
Cc1cccc(Cn2cccc(C(=O)Nc3ccc4c(c3)OCCO4)c2=O)c1,0%,?
COc1ccc(CC(=O)NC(C)c2nnc(SCC(=O)c3ccc(F)cc3)n2C)cc1 (stereo not given),9%,7%
CCN(CCCNC(=O)CSc1cc(=O)n(CC)c2ccccc12)c1cccc(C)c1,-12%,4%

# For convenience, some entries already given.
SMILES,2A firefly,StopGo RLuc
Cc1ccc(-c2nnn(Cc3csc(-c4ccc(C)cc4)n3)n2)cc1,9%,-4%
COc1cccc(NCc2cc(=O)oc3cc(OC)ccc23)c1,67%[activator],6%
COc1ccc(-c2ccc(=O)n(CC(=O)N3CCC(Cc4ccccc4)CC3)n2)c(F)c1,?,?
CCc1ccc(-c2nn(C)c(=O)c3c2CCCC3)cc1S(=O)(=O)Nc1cccc(F)c1,13%,284%[activator]
CCOc1ccc(N(CC)C(=O)c2cc3c(s2)-c2ccc(Cl)cc2SC3)cc1,10%,-5%

# The listing continues.
SMILES,2A firefly,StopGo RLuc
O=C(Nc1nc2c(Cl)cccc2s1)c1ccc(S(=O)(=O)N2CCc3ccccc32)cc1,-16%,-10%
C=CCN1[C@@H](CC(C)C)COc2cccc(N3CCCC3)c2S1(=O)=O,7%,19%
COC(=O)c1cc(-c2ccc(C)cc2)c2c(=O)n(C)c(=O)n(C)c2n1,-5%,-6%
COc1ccc(F)c(CNCCc2c(C)[nH]c3ccc(OC)cc23)c1,-14%,8%
O=C(COC(=O)CCc1c[nH]c2ccccc12)NCCc1ccccc1,-12%,-18%
COc1ccc(C)cc1NC(=O)CCc1c(C)nn(-c2ccc(N3CCCCC3)nn2)c1C,54%[activator],-1%
COc1cc2c(cc1OC)C(c1ccc(F)cc1)N(c1ccccc1)C(=O)C2 (stereo not given),0%,0%
Cc1ccccc1CNC(=O)c1oc2c(c1C)-c1nn(Cc3ccc(Cl)cc3)cc1CC2,-26%,4%
CCn1c(SCC(=O)c2ccc(C#N)cc2)nnc1-c1ccc(F)cc1,-1%,9%
COc1ccc(Nc2ncnc3c2nc2n3CCCCC2)cc1,240%[activator],4%
O=C(Nc1nc(-c2cc(F)ccc2F)cs1)c1ccc(Cl)c(N2CCCC2=O)c1,78%[activator],-9%
CC1(C)CC(NC(=O)Nc2ccc(OCC(F)(F)F)cc2)CC(C)(C)N1,-15%,-13%
O=C(OCC1CCCO1)c1ccc2c(c1)N(Cc1ccc(F)cc1)C(=O)c1ccccc1S2(=O)=O (stereo not given),-7%,3%
Fc1ccc(-c2csc(-c3nc(-c4ccc(Br)s4)cs3)n2)cc1,-3%,-1%
Cc1nc(Cn2cnc3scc(-c4ccccc4)c3c2=O)no1,-2%,1%
O=C(CCS(=O)(=O)c1cc2c3c(c1)CCN3C(=O)CC2)Nc1ccc(F)c(Cl)c1,-10%,-1%
CC(=O)Nc1ccc(OCC(=O)N/N=C/C(C)C)cc1,7%,4%
Cc1ccc(NC(=O)CN(C)C(=O)Cc2c[nH]c3ccccc23)cc1,12%,30%[activator]
COc1ccc(N2CCN(S(=O)(=O)c3ccc(F)c(C(=O)Nc4ccccc4Cl)c3)CC2)cc1,-8%,-4%
Cc1c(CC(=O)N2CCCCC2)c(=O)oc2c(C)c3occ(C(C)(C)C)c3cc12,-16%,-7%
CCOC(=O)c1[nH]c(C)c(C(C)=O)c1C,0%,25%
CCCCNC(=O)NCC(=O)NCCC,-7%,2%
CCN(C(=O)c1cc2cc(Br)cc(OC)c2oc1=O)c1ccccc1,-5%,3%
COc1ccc(NC(=O)CSCc2ccc(Cl)cc2)c(OC)c1,-4%,27%
CCCn1nc(C(=O)N(C)Cc2cccs2)c2ccccc2c1=O,6%,26%
COc1ccc(N(CC(=O)NC(C)c2ccccc2)S(=O)(=O)c2c(C)nn(C)c2C)cc1 (stereo not given),-1%,16%
Cc1ccccc1-n1nnnc1SCC(=O)c1ccc(Br)s1,0%,213%[activator]
O=C(NC1CCCCC1)c1ccc2c(c1)N(Cc1ccccc1F)C(=O)c1ccccc1S2,-5%,1%
CC(C)(O)C#Cc1ccccc1C(=O)NC(CSCc1ccccc1)C(=O)O (stereo not given),-2%,9%
COc1ccc(NC(=O)c2cc(=O)c3cc(C)ccc3o2)cc1OC,1%,-5%
Cc1cccc(C(C)C)c1NC(=O)Cc1c[nH]c2ccccc12,4%,19%
CCOc1c(Br)cc(/C=C/c2ncc(C(=O)O)s2)cc1OC,47%[activator],12%
CCCn1nc(C(=O)Nc2ccc(F)c(Cl)c2)c2ccccc2c1=O,32%[activator],-7%
C=CCc1ccccc1OCCSc1nc(-c2ccc(C(C)(C)C)cc2)nc2cc(=O)[nH]n12,-8%,-4%
Cc1ccccc1CNc1ccccc1C(N)=O,10%,21%
CCc1ccc(C(=O)N(CCN(C)C)CC(=O)OC(C)(C)C)cc1,18%,3%
CC(C)NC(=O)/C=C/c1cccc(Cl)c1,100%[activator],22%
O=C1CCCC2=C1C(c1ccc(O)c(Br)c1)C1=C(CCCC1=O)O2,40%[activator],55%[activator]
O=C(CSc1ncnc2sc3c(c12)CCCC3)Nc1ccc(F)cc1,16%,10%
CNC(=O)c1ccccc1Sc1ccc2c(/C=C/c3ccccn3)n[nH]c2c1,83%[activator][11.5 µM],-4%
CN1CCN(NC(=O)c2ccc(Br)cc2)CC1,64%[activator],50%[activator]
CC(=O)c1cccc(NC(=O)c2ccc3c(c2)N(Cc2ccc(C)cc2)CCS3)c1,51%[activator],-3%
CCCc1noc(CCC(=O)Nc2ccccn2)n1,2%,-4%
COC(=O)[C@]12C[C@H](CC(=O)N3CCOCC3)C(=O)N(Cc3cccc4ccccc34)C1=C[C@H](C(C)C)O[C@@H]2C1CC1,0%,328%[activator]
CCc1ccccc1NC(=O)CN1C(=O)CCc2cc(S(=O)(=O)N3CCCCC3)ccc21,0%,85%[activator]
CCOc1ccc(NS(=O)(=O)c2cc(-c3cnc(C)o3)ccc2C)cc1,11%,290%[activator]
CCCCn1nc(C(=O)Nc2ccc(Cl)cc2C)c2ccccc2c1=O,2%,-5%
CCc1c(C)sc2nc(N(CCO)CCO)n3nc(-c4ccccc4)nc3c12,-8%,-14%
Cc1cc(S(=O)(=O)N2CCOC23CCN(C(=O)c2ccccc2C(F)(F)F)CC3)ccc1F,-9%,176%[activator]
CN1CCN(C(C(=O)O)c2cn(CCC(=O)O)c3ccc(Br)cc23)CC1 (stereo not given),2%,-7%
CCN1CCN(C(=O)c2cccc(NC(=O)c3nnc(COc4cc(C)cc(C)c4)s3)c2)CC1,-2%,-4%
COc1cccc(-c2cc(C(=O)N3CCN(c4ccc(F)cc4)CC3)no2)c1,7%,3%
CCCCNC(=O)c1ccc2[nH]c(C)c(C)c2c1,107%[activator],9%
Cc1cc(C)cc(N2CC(c3nnc(NC(=O)c4ccco4)s3)CC2=O)c1 (stereo not given),-10%,-8%
O=C(CCc1ncc(-c2ccc(F)cc2)o1)NCCc1ccccc1,0%,12%
Cc1ccc(C(=O)N2CCN(c3ccccc3)CC2)cc1NC(=O)c1nsc2ccccc12,-11%,-14%
O=C(O)CCC(=O)c1ccc(F)cc1,0%,-6%
COc1ccc(C2C(C(=O)Nc3ccccc3OC)=C(C)Nc3nc(SC)nn32)cc1 (stereo not given),15%,10%
CC(Sc1ncnc2nc[nH]c12)C(=O)NCCc1ccc(Cl)cc1Cl (stereo not given),-6%,-11%
CCc1ccc(-c2cc(C(F)F)n3nc(C)c(Br)c3n2)cc1,-10%,-22%

# Additional results.
SMILES,2A firefly,StopGo RLuc
CCCCCCCCc1ccc(C(=O)CCN(C)C)cc1,5%,-9%
COc1cccc(CNC(=O)c2ccc3nc(-c4ccc(F)cc4)c(-c4ccc(F)cc4)nc3c2)c1,2%,-1%
CCCOc1cccc(C(=O)Nc2nonc2CC)c1,97%[activator],189%[activator]
Cc1cc(NC(=O)c2ccc(Cl)cc2)n(CCC#N)n1,17%,-3%
CC(Sc1cc(Cl)ccc1Cl)C(=O)NCCC(=O)N1CCCCC1 (stereo not given),0%,21%
N#Cc1ccc(COC(=O)c2ccccc2-c2ccccc2C#N)cc1,-28%,-1%[1.06 µM]
COC(=O)CCNCc1ccccc1,-1%,-2%
Cc1cnc2c(S(=O)(=O)N(C)CC3CCCCC3)cccc2c1,-4%,274%[activator]
COc1ccc(C2c3c(oc4ccc(Cl)cc4c3=O)C(=O)N2CCCN(C)C)cc1OC (stereo not given),-6%,2%
COc1cccc(C(=O)NCCc2csc3nc(-c4ccccc4F)nn23)c1OC,-13%,12%
CCC(CC)C(CNC(=O)NCc1cccc(C)n1)N1CCOCC1 (stereo not given),-5%,-8%
Cc1ccc(-c2nc3sccn3c2Nc2ccc(C)c(C)c2)cc1,25%,-3%
CC(=O)N1c2ccccc2CC1C(=O)N1CCN(c2cccc(C)c2C)CC1 (stereo not given),-24%,-2%
COCCNC(=O)CN1C(=O)c2cccnc2Sc2ccccc21,-3%,-1%
COc1ccc(C(=O)N2N=C(c3ccco3)CC2c2ccc3nccnc3c2)cc1 (stereo not given),6%,2%
COC(=O)c1sc2cccc(F)c2c1S(=O)(=O)Nc1cc(OC)cc(OC)c1,-20%,105%[activator]
Cc1c(C(=O)N2CCN(c3ccccc3)CC2)oc2c1C(=O)CC(C)(C)C2,-10%,5%
Cc1cccc(C(=O)Nc2ccc(S(=O)(=O)N(Cc3ccccc3)c3ccccc3)cc2)c1,-23%,-4%
CC(=O)Nc1cc(-c2nc3ccccc3o2)ccc1Cl,148%[activator],18%
COc1ccccc1OCCCCn1c(C2CC(=O)N(c3ccccc3Cl)C2)nc2ccccc21 (stereo not given),-22%,7%

# Structural class: those above with a Cl atom
SMILES,2A firefly,StopGo RLuc
CCOc1ccc(N(CC)C(=O)c2cc3c(s2)-c2ccc(Cl)cc2SC3)cc1,10%,-5%
O=C(Nc1nc2c(Cl)cccc2s1)c1ccc(S(=O)(=O)N2CCc3ccccc32)cc1,-16%,-10%
Cc1ccccc1CNC(=O)c1oc2c(c1C)-c1nn(Cc3ccc(Cl)cc3)cc1CC2,-26%,4%
O=C(Nc1nc(-c2cc(F)ccc2F)cs1)c1ccc(Cl)c(N2CCCC2=O)c1,78%[activator],-9%
O=C(CCS(=O)(=O)c1cc2c3c(c1)CCN3C(=O)CC2)Nc1ccc(F)c(Cl)c1,-10%,-1%
COc1ccc(N2CCN(S(=O)(=O)c3ccc(F)c(C(=O)Nc4ccccc4Cl)c3)CC2)cc1,-8%,-4%
COc1ccc(NC(=O)CSCc2ccc(Cl)cc2)c(OC)c1,-4%,27%
CCCn1nc(C(=O)Nc2ccc(F)c(Cl)c2)c2ccccc2c1=O,32%[activator],-7%
CC(C)NC(=O)/C=C/c1cccc(Cl)c1,100%[activator],22%
CCCCn1nc(C(=O)Nc2ccc(Cl)cc2C)c2ccccc2c1=O,2%,-5%
CC(Sc1ncnc2nc[nH]c12)C(=O)NCCc1ccc(Cl)cc1Cl (stereo not given),-6%,-11%
Cc1cc(NC(=O)c2ccc(Cl)cc2)n(CCC#N)n1,17%,-3%
CC(Sc1cc(Cl)ccc1Cl)C(=O)NCCC(=O)N1CCCCC1 (stereo not given),0%,21%
COc1ccc(C2c3c(oc4ccc(Cl)cc4c3=O)C(=O)N2CCCN(C)C)cc1OC (stereo not given),-6%,2%
CC(=O)Nc1cc(-c2nc3ccccc3o2)ccc1Cl,148%[activator],18%
COc1ccccc1OCCCCn1c(C2CC(=O)N(c3ccccc3Cl)C2)nc2ccccc21 (stereo not given),-22%,7%

# Compound activity from PubChem BioAssay.
